HSV replic up: enhancers of HSV replication in host cells, fold increase, host cell viability | maximum fold increase | HSV replication augmentation in cells | AID 1956, 2009 | 220,000 tested, 0.005% active;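 active = peak rise of 1.5-fold or more in the series; tested in PC3 cells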;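 note: first round at 10 µM; read as green reporter fluorescence; hits show the peak of a series up to 25 µM; 1 = signal of infected wells without compound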
PKD1 inh: inhibitors of human PKD1 kinase, biochemical, fluorescence polarization; inhibition, %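 (about 10 µM by stock and volumes)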; Serine/threonine-protein kinase D1 (Homo sapiens), Q15139; AID 797, 2007; PKD1 kinase fluorescence polarization assay; 200,000 tested, 0.056% active;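 active = inhibition of 50% or more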;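 note: controls were vehicle for no effect and a reference inhibitor for full effect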
Target sequence (Q15139 whole entry, looked up): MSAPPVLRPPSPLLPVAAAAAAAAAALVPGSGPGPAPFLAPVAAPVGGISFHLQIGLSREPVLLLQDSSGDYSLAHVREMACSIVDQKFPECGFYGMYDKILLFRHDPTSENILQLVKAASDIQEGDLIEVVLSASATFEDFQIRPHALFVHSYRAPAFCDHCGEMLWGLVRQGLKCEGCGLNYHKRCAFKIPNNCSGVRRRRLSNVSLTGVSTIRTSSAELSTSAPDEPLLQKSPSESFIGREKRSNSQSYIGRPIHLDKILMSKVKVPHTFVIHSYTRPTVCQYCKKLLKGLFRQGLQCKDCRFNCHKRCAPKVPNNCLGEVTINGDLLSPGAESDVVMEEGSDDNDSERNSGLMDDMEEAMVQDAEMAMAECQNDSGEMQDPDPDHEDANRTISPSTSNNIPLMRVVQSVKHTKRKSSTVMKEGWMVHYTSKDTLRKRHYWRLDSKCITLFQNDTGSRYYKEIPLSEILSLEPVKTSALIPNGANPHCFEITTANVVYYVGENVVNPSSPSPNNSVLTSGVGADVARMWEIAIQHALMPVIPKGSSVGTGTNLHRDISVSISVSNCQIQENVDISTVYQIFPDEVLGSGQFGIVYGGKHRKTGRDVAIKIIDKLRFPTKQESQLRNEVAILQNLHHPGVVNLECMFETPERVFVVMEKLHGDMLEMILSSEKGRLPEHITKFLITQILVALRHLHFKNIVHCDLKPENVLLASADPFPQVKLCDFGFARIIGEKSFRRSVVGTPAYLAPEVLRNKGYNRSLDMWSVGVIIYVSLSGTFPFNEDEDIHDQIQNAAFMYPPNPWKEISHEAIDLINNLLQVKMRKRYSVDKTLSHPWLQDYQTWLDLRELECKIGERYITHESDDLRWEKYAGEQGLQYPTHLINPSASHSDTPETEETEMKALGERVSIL
RGS16-Gao HTS: modulators of RGS16 binding to Galphao, primary screen, biochemical, human proteins, multiplexed bead flow cytometry. bead-based flow cytometry RGS16-Galphao binding, fluorescence; actives lie on both sides. binding response (% of control), % at 10 µM. 220,000 tested, 0.38% active. AID 1441, 2008;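 active = below 25% or above 175%, edge rows of some plates excepted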;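 note: Galphao activated by GDP with aluminum fluoride before binding; 100% = wells without compound and 0% = beads without RGS; some results beyond the cut were filed as inactive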
GALR2 ag: GALR2 receptor agonists, primary screen, cell-based; Galanin receptor type 2 (Homo sapiens), O43603; GALR2-expressing cells, agonist activation read-out; activation, %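 (tested at 5 µM)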; 140,000 tested, 0.48% active;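 active = above mean plus 3 SD of all compounds, about 5% in these data, not always enough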;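 note: 0% = vehicle buffer wells and 100% = reference agonist at full effect; tested in CHO reporter cells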
INS promoter inh: inhibitors of insulin promoter-driven GFP, primary screen, imaging, TRM-6 cells (human fetal islet line), eGFP reporter, cell count; 130,000 tested, 0.9% active; reporter expression induced with tamoxifen; AID 1273, 2008; inhibition, % at 2 µM;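 active = inhibition above the mean plus 3 SD, with well images judged a real hit on visual review, cut at about 60% in these data, passing the limit was not always enough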
INS promoter inh cell count: second read-out of INS promoter inh, no call of its own (marks repeat the call); normalized cell count, %; measured here: cell count, toxicity; reference of the scale not given here;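 cells exposed to compound for 48 h; stained nuclei by imaging scaled within each plate; lower means fewer cells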
HSV replic up primary fold: also measured in HSV replic up; calls as there; fold increase; compound at 10 µM; measured here: primary screen fold increase 10 uM; tested in PC3 cells;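 GFP signal in the first replicate; 1 = infected wells without compound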
* marks the source's active call; other numbers are inactive results; i = inactive; . = no result given; [ ] = remark or other dose.

SMILES	HSV replic up	HSV replic up primary fold	PKD1 inh	RGS16-Gao HTS	GALR2 ag	INS promoter inh	INS promoter inh cell count
CN(C)CC(O)COc1cc2ccccc2cc1C(=O)N1CCCCC1 (centres undefined)	i	0.74	-6	99	-1.4	14	75
CCN(CC)CCOc1cccc(C(C)C)c1	i	0.9	-6	100	-2.3	-9	127
O=C(CSc1nncs1)N1c2ccccc2Sc2ccccc21	i	0.69	-4	98	-1.0	8	95
C#CCSc1ncc(S(=O)(=O)c2ccccc2)c(=O)[nH]1	i	1	-1	105	.	-100	190
O=C(c1cc(C2CC2)on1)N1CCOCC1	i	0.79	-14	102	.	.	.
O=c1c(Cc2ccc(F)cc2)c(O)ccn1CCCN1CCOCC1	i	0.98	2	100	.	15	101
O=C(O)CC(CNS(=O)(=O)c1ccccc1)c1ccccc1 (centres undefined)	i	0.66	14	102	-2.2	.	.
O=c1c2c3c(sc2n(CCN2CCCC2)c(=O)n1Cc1ccco1)CCCCC3	i	0.65	9	98	0.8	.	.
C=CCNC(=O)O/N=C/c1csc([N+](=O)[O-])c1	i	0.97	.	93	.	.	.
O=C(CN1CCOCC1)Nc1ncc(Cc2ccccc2Cl)s1	i	1.1	-5	125	-1.0	52	117
O=C(CSCc1c(F)cccc1Cl)Nc1ccccc1C(=O)N1CCOCC1	i	1.1	-1	108	.	.	.
COc1ccc(Cl)cc1NC(=O)c1ocnc1C	i	1.1	-9	98	-1.1	21	143
Cc1ccc2oc3nc(C)c(C(=O)O)cc3c(=O)c2c1	i	0.93	-3	89	-0.5	27	74
CC(=O)c1ccc(-c2ccc(C(=O)N3CCN(c4ccc(F)cc4)CC3)o2)cc1	i	1	2	75	.	-17	62
CCNC(=O)CC1C(=O)N(c2ccc(F)cc2)C(=O)N1Cc1cccs1 (centres undefined)	i	0.96	5	98	.	.	.
O=C(Nc1ccc2c(c1)OCCO2)C(=S)NCc1ccccc1	i	0.89	4	110	.	17	133
O=C(COc1ccccc1Cl)N1CCN(c2ccc([N+](=O)[O-])c(N3CCOCC3)c2)CC1	i	1	0	97	-2.8	17	148
O=S(=O)(CCc1ccccc1)/N=C/c1cccs1	i	0.96	-2	124	-1.5	4	123
COc1cccc(NC(=O)CSc2nnc(-c3cc(C)n(-c4ccccc4)c3C)o2)c1	i	1.1	10	97	-1.5	10	46
CCC(=O)N1c2ccccc2NC2=C(C(=O)CC(C)(C)C2)C1c1cccnc1 (centres undefined)	i	0.99	-9	96	.	.	.
Cc1ccc(S(=O)(=O)N2CCCC2C(=O)N(C)Cc2cccs2)cc1 (centres undefined)	i	0.73	-5	94	-1.4	-48	60
O=C1c2cccc3cccc(c23)C(=O)N1c1cccnc1	i	0.76	-13	97	-1.4	.	.
Cc1c(NC(=O)COC(=O)c2ccc[nH]c2=O)c(=O)n(-c2ccccc2)n1C	i	0.98	-14	100	0.2	.	.
CCN(Cc1ccccc1)C(=O)CC1Oc2ccccc2NC1=O (centres undefined)	i	0.88	-4	98	-3.0	.	.
COc1ccc(S(=O)(=O)N2CCCCCC2)cc1C(=O)OCC(=O)NC(C)(C)C	i	0.97	-3	101	.	.	.
Next entries follow:
SMILES	HSV replic up	HSV replic up primary fold	PKD1 inh	RGS16-Gao HTS	GALR2 ag	INS promoter inh	INS promoter inh cell count
Cc1nn(CCC(=O)O)c(C)c1C	i	0.97	2	107	-0.4	7	132
C=CCn1c(N)c(C(=O)Nc2ccccc2OC)sc1=S	i	1	-11	97	-1.7	-93	101
Cc1ccc(C(=O)N/N=C\c2ccc([N+](=O)[O-])o2)cn1	i	0.95	.	109	.	.	.
CCOc1cc(CNc2ncnc3nc[nH]c23)ccc1OC	i	0.75	-10	103	-1.6	.	.
CCNC(=O)C/C(C)=N/NC(=O)C1CCCCC1	i	1.1	-4	75	-0.5	.	.
COc1ccc(/C=N/NC(=O)Cc2ccc(Cl)cc2)cc1OC	i	0.97	-1	102	.	15	68
N#C/C(=N\Nc1cccc(C(F)(F)F)c1)C(=O)c1ccsc1	i	1.1	.	99	.	.	.
CCn1cc(C(C)(C)C)c(C#N)c1NC(C)=O	i	1	-5	109	-1.9	-36	91
Cc1ccc2c(c1)C1CN(C)CCC1N2S(=O)(=O)c1ccc(Oc2ccc([N+](=O)[O-])cc2)cc1 (centres undefined)	i	0.71	-7	103	.	.	.
CC(=O)Nc1ccccc1C(=O)C(=O)Nc1cccc(C(=O)NCC2CCCO2)c1 (centres undefined)	i	0.98	-2	99	.	-41	65
COc1cc(/C=C/C(=O)Nc2nnc(CC(C)(C)C)s2)cc(OC)c1OC	i	0.79	3	92	-1.1	.	.
Cc1nc2ccccc2c2c1C(=O)N(Cc1cccnc1)C2=O	i	0.9	1	99	-0.7	.	.
CCc1ccc(-c2cc(C(F)(F)F)n3nc(C(=O)Nc4c(C)nn(Cc5ccc(F)cc5)c4C)cc3n2)s1	i	0.88	0	106	13*	-23	104
COc1ccc(C2NC(=S)NC3=C2CCCC3=C2SCCS2)cc1 (centres undefined)	i	0.83	-3	100	.	-86	81
COCC(C)OC(=O)c1c(N)n(CC(C)C)c2nc3ccccc3nc12 (centres undefined)	i	0.78	-2	101	3.6	-17	98
CCCCNC(=O)Nc1ccccc1CC	i	0.91	.	102	.	.	.
O=C1OC(c2cccs2)=N/C1=C\c1ccc(-c2ccccc2Cl)o1	i	1	-5	97	-1.8	-44	71
Cc1cc(C)cc(C(=O)Oc2coc(CSc3nnc(NC(=O)C4CC4)s3)cc2=O)c1	.	.	1	107	-0.5	.	.
Cc1ccc2nc(C)c3c(c2c1)SCC3	i	0.97	.	193*[activator]	.	.	.
CCOC(=O)c1cc(-c2cccs2)nn1CCC#N	.	.	-9	98	0.3	25	149
COC(=O)c1ccc(Oc2nc(C(N)=O)cc(-c3ccccc3)n2)cc1	i	0.85	-6	100	-3.3	61*	57*
Cc1nc(SCc2ccccc2)c(C(F)(F)F)c(=O)[nH]1	i	1.1	22	106	-2.9	0	79
CCCCCCC(=O)Nc1nc(C)c(-c2csc(Nc3cc(Cl)ccc3OC)n2)s1	i	0.82	19	106	-0.3	-40	72
Nc1ncc(-c2cc3ccccc3oc2=O)s1	i	0.88	-4	100	-1.0	.	.
Cc1ccc2nc(-c3ccccn3)cc(C(=O)NC3CCN(C)CC3)c2c1	i	0.9	-6	97	-1.1	0	70

GALR2 ag: what is marked active above
Compound,HSV replic up primary fold,PKD1 inh,RGS16-Gao HTS,GALR2 ag
CCc1ccc(-c2cc(C(F)(F)F)n3nc(C(=O)Nc4c(C)nn(Cc5ccc(F)cc5)c4C)cc3n2)s1,0.88,0,106,13*

New compounds follow.
SMILES	HSV replic up	HSV replic up primary fold	PKD1 inh	RGS16-Gao HTS	GALR2 ag	INS promoter inh	INS promoter inh cell count
COc1ccc(C(=O)c2ccc(N3CCN(C4CC(=O)NC4=O)CC3)cc2)cc1F (centres undefined)	i	0.94	-4	90	-1.0	-24	110
CCn1cc(SCC(=O)NCC2CCCO2)c2ccccc21 (centres undefined)	i	0.98	.	115	.	.	.
CCOC(=O)Cn1cnc2c(nnn2-c2ccc(C)cc2)c1=O	i	0.74	-1	76	-1.0	-28	104
COc1ccc(CNC(=O)CN(Cc2ccc(C)cc2)S(=O)(=O)c2ccc(Cl)cc2)cc1	i	1	-7	118	-1.5	-20	93
COCC(=O)N1CCCC(C(=O)c2ccc3c4c(cccc24)CC3)C1 (centres undefined)	i	0.94	6	94	.	.	.
Cc1cc(C)nc(NC(=O)/C=C/c2ccc3c(c2)OCO3)c1	i	1	6	58	-1.5	-19	91
O=C(CSC1CS(=O)(=O)c2cc([N+](=O)[O-])ccc21)NNC(=O)c1ccc(Cl)cc1 (centres undefined)	i	0.98	.	105	.	.	.
O=C(NCc1ccco1)c1cc(S(=O)(=O)N2CCCc3ccccc32)ccc1Cl	i	0.67	6	97	-3.1	-3	113
CCOc1ccc(NC(=O)C(C)Sc2nnc(C)n2C)cc1 (centres undefined)	i	1.6	-11	98	-1.2	.	.
CCSCCNC(=O)c1cc(-n2cnnc2)ccc1Cl	i	1.3	4	101	-0.6	-23	137
CCOCCCN1C(=O)CN(C2CCCCC2)C(=O)C1c1ccc(OC)c(OC)c1 (centres undefined)	i	0.96	-9	118	-3.4	.	.
CC1(C)NC(=O)N(CC(=O)OCC(=O)Nc2cc(S(=O)(=O)N3CCCCC3)ccc2Cl)C1=O	i	0.99	1	116	-0.6	-19	113
Nc1cc(=O)[nH]c(SCC(=O)N2N=C(c3ccc4ccccc4c3)CC2c2ccccc2)n1 (centres undefined)	i	0.85	.	100	.	.	.
COc1ccc(-c2csc(NC3=NCCCCC3)n2)cc1	i	0.79	8	79	-1.2	24	92
COc1ccc(C(=O)n2ncc(C#N)c2N)cc1	i	0.97	-3	110	.	-11	67
CC(=O)Nc1ccc(S(=O)(=O)Nc2nnc(C3CCCCC3)s2)cc1	i	0.82	-3	103	-1.0	.	.
Cc1nc(-c2ccc(Cl)cc2)sc1C1(C)CC(c2ccc(OC(F)(F)F)cc2)=NO1 (centres undefined)	i	0.96	.	100	.	.	.
CC(C)CC(=O)Nc1ccccc1N1CCCC1	i	1.1	-2	78	-1.0	.	.
CCN(CC)CCCC(C)NC1=NCCCCC1 (centres undefined)	i	1	-2	92	-3.1	27	95
Cc1cc(NC(=O)c2ccc3c(c2)OCCO3)ccc1NC(=O)c1ccco1	i	0.96	0	48	.	.	.
CCOC(=O)C1CCCN(c2c(NCCN3CCCCC3CC)c(=O)c2=O)C1 (centres undefined)	i	0.82	-11	164	-1.6	.	.
Cc1ccc(C(=O)OCc2cn3ccccc3n2)cc1	i	0.95	-7	105	-1.1	.	.
COc1ccc(/C=C/C(=O)Oc2ccc(/C=N/NC(=O)c3ccccc3)cc2)cc1OC	i	0.85	-3	135	-1.4	-27	34
Cn1c(N)c(C(=O)COC(=O)CCCN2C(=O)c3ccccc3C2=O)c(=O)n(C)c1=O	i	0.94	-3	103	.	.	.
CC(=O)Nc1cccc(Oc2ccc(-c3noc(C)n3)cc2)c1	i	1	4	101	0.3	0	101
(listing goes on)
SMILES	HSV replic up	HSV replic up primary fold	PKD1 inh	RGS16-Gao HTS	GALR2 ag	INS promoter inh	INS promoter inh cell count
O=c1c2ccccc2nc(SCc2nc3ccccc3s2)n1Cc1ccco1	i	1	4	107	-4.1	-210	81
NC(=O)C(c1ccccc1)C1CCCC1 (centres undefined)	i	1.1	-2	96	-4.5	-106	131
Cc1ccc(Cn2c(SCC(N)=O)nc3c2c(=O)n(C)c(=O)n3C)cc1	i	0.87	-2	99	-1.8	31	107
O=C(Cc1ccccc1[N+](=O)[O-])Nc1ccc2c(c1)OCCO2	i	0.99	0	159	-1.9	.	.
CN1CCN(C(=S)c2ccc(OCC(=O)Nc3cccc(C(F)(F)F)c3)cc2)CC1	i	0.95	-9	102	-2.5	.	.
CC(C)NC(=O)NC(=O)CSc1nncs1	i	0.98	-2	96	.	.	.
COc1ccc(OCC(O)CNC(=O)Nc2ccc(F)cc2)cc1 (centres undefined)	i	1	.	102	.	.	.
COc1ccc2[nH]c(=O)c(CN(CC3CCCO3)C(=S)Nc3cccc(C)c3)cc2c1 (centres undefined)	i	0.95	2	97	.	.	.
Cc1cc(C)n(-c2ccc(C(=O)NCc3ccc4c(c3)OCO4)cc2)n1	i	0.95	-1	100	-1.8	.	.
O=C(C1CCN(c2nc3nonc3nc2N2CCCCC2)CC1)N1CCOCC1	i	0.97	4	117	.	.	.
COc1ccc(/C=N/NC(=O)CCC(=O)Nc2ccccc2)cc1OC	i	1.1	-13	104	-1.6	37	111
OC(COc1ccc(CNCCc2ccc(C(F)(F)F)cc2)cc1)CN1CCCCC1 (centres undefined)	i	0.67	-7	110	.	.	.
CC(=O)c1cc(-c2ccc(F)cc2)n(CCC(=O)Nc2cccc(C)n2)c1C	i	0.87	-4	107	.	-100	93
COc1ccc(-c2cc3ncc(-c4ccccc4)c(N)n3n2)cc1	i	0.94	-4	102	.	5	102

Part of the list above in order of count of non-hydrogen atoms, descending.
SMILES	HSV replic up	HSV replic up primary fold	PKD1 inh	RGS16-Gao HTS	GALR2 ag	INS promoter inh	INS promoter inh cell count
CC1(C)NC(=O)N(CC(=O)OCC(=O)Nc2cc(S(=O)(=O)N3CCCCC3)ccc2Cl)C1=O	i	0.99	1	116	-0.6	-19	113
COc1ccc(OCC(O)CNC(=O)Nc2ccc(F)cc2)cc1 (centres undefined)	i	1	.	102	.	.	.
CCOC(=O)Cn1cnc2c(nnn2-c2ccc(C)cc2)c1=O	i	0.74	-1	76	-1.0	-28	104
CCSCCNC(=O)c1cc(-n2cnnc2)ccc1Cl	i	1.3	4	101	-0.6	-23	137
Nc1ncc(-c2cc3ccccc3oc2=O)s1	i	0.88	-4	100	-1.0	.	.
O=C(c1cc(C2CC2)on1)N1CCOCC1	i	0.79	-14	102	.	.	.

Compound activity from PubChem BioAssay.
